High-throughput results (PubChem)
RecA intein inh = blocks M. tuberculosis RecA intein splicing. cell-free RecA intein splicing, fluorescence. inhibition, %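 (about 9 µM by stock and volumes)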. 290,000 compounds, 0.75% hits; in the data active means inhibition above about 30%; inconclusive means no clear call, values can overlap the other calls;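 further: 0% = vehicle wells and 100% = reference inhibitor control wells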
Target sequence (P9WHJ3 whole entry, looked up): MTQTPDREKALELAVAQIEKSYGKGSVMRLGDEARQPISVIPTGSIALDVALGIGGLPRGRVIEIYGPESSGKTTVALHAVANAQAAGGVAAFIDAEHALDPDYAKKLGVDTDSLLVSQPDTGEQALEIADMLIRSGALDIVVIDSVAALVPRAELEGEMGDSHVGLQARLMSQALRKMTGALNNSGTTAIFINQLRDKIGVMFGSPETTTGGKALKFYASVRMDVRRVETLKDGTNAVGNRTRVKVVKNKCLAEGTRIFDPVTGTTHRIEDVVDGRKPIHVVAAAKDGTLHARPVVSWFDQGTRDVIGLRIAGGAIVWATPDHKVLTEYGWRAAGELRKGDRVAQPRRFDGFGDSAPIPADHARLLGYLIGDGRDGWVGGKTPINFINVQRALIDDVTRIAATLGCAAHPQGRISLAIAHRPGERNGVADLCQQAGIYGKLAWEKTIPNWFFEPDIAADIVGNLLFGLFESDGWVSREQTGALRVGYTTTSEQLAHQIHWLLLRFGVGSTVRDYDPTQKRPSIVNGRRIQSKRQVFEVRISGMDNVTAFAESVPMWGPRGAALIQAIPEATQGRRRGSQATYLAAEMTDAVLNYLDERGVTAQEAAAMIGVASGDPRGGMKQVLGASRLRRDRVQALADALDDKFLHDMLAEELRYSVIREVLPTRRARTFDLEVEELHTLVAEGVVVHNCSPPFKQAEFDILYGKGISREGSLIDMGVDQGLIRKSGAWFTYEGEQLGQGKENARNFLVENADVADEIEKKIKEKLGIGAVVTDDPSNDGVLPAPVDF
YopH PTP inh = inhibitors of Yersinia enterocolitica YopH tyrosine phosphatase; fluorescence Ex485/Em525; inhibition, %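 (about 10 µM by stock and volumes)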; 140,000 compounds, 0.16% hits;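 active means inhibition of 50% or more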;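 further: controls were vehicle for no effect and minimum signal wells for full effect; inactives centre near -20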
Mtb growth = M. tuberculosis H37Rv growth inhibitors, H37Rv strain (AID 1626); M. tuberculosis H37Rv growth inhibition; higher % means a stronger effect; one-dose inhibition, % at 10 µM; IC50 in µM for titrated hits; 220,000 compounds, 0.95% hits;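 active means confirmed in a dose series; inconclusive means inhibition above 80% but not taken into the dose series; inactive means below 80% or under 30% at every dose of the series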;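 further: bacteria incubated seven days before Alamar blue readout; 0% = bacteria only wells and 100% = bacteria with antibiotic wells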
Arbovirus anti = antivirals against arbovirus infection | arbovirus infection cell-based antiviral screen | inhibition, % at 10 µM | 200,000 compounds, 0.37% hits;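 active means inhibition from about 30%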;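 further: bluetongue infection of BSR cells; cell survival read as ATP light after 72 h; 0% = infected wells without compound and 100% = uninfected wells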
Mtb bLac sens = beta-lactam sensitization of Mtb H37Rv; M. tuberculosis H37Rv growth with meropenem, percent inhibition; hits of this screen are not shown here; inhibition, % at 25 µM; 330,000 compounds, 0.27% hits;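 active means about 74% or more and at least 40 points above the plate without the antibiotic, then above 30% in a dose series; inconclusive means first-round hits that could not be retested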;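 further: growth measured after seven days incubation then overnight dye step; 0% = bacteria only wells and 100% = bacteria with antibiotic; twin plates without the antibiotic show which effects depend on it; some results filed as inactive read as strong as hits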
Arbovirus anti repeat = recorded beside Arbovirus anti, whose call it bears; inhibition, %; measured here: 10K subset replicate screen; many hits read low in the repeat;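 first of two repeat runs on a subset; 0% = infected and 100% = uninfected wells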
Starred values were filed as active, the others as inactive; ? = inconclusive; . = no result given.

SMILES	RecA intein inh	YopH PTP inh	Mtb growth	Arbovirus anti	Mtb bLac sens	others
COc1cc([N+](=O)[O-])c(N2CCOCC2)c([N+](=O)[O-])c1OC	3.5	.	-4.5%	6.1	-9.8
Cc1nc(N2N=C(c3ccc(Cl)cc3)CC2c2ccco2)sc1C(=O)N(C)C (stereo unspecified)	-25.2	.	3.2%	8.9	1.9
CC1CCc2nn(CC(=O)Nc3ccc(F)cc3F)cc2C1 (stereo unspecified)	-1.6	-21.2	1.6%	-1.7	?	Arbovirus anti repeat=4.1
CCCCN1C(=S)NC[C@@H]1Cc1ccc(O)cc1	0.0	.	-2.0%	.	-5.0
CC1(C)OCC(C2CC(c3ccccc3)NS(=O)(=O)O2)O1 (stereo unspecified)	-0.7	.	.	.	0.0
Nc1[nH]n2c(=O)cc(-c3ccccc3)nc2c1N=Nc1ccc(S(N)(=O)=O)cc1	4.2	.	0.8%	6.0	7.1
Cc1c(-c2cc(C(=O)O)c3ccccc3n2)cnn1C	-0.8	.	1.1%	2.0	0.1
CCOCCCNC(=O)CN1C(=O)COc2ccc(S(=O)(=O)N3CC(C)CC(C)C3)cc21 (stereo unspecified)	-0.2	.	.	.	2.4
CN(C)CCOCCOc1ccc(Cl)cc1Br	-0.8	.	-1.0%	-10.3	0.7
CC(C)n1nc(C(=O)NCCCN2CCCC2=O)c2ccccc2c1=O	5.4	.	.	.	-20.2
CC(C)(C)N(Cc1ccccc1)C(=O)c1cc2ccccc2o1	2.1	.	.	.	4.5
CCCNC(=O)C1(CC2CC(c3ccccc3)=NO2)CCNCC1 (stereo unspecified)	-1.8	.	-0.9%	.	-6.5
CCOc1ccccc1C(=O)N1CCN=C1SC	1.4	-45.4	4.1%	6.3	-4.0
COc1ccccc1C(=O)Nc1ccc2c(c1)nc1n2CCN(C2CCCCC2)C1	-0.4	.	.	.	34.4
CCn1nnc(-c2ccccc2NS(=O)(=O)c2ccc(C(=O)OC)cc2)n1	2.0	-26.7	-7.3%	-19.0	2.4
O=c1cc(CN2CCN(Cc3ccccc3)CC2)c2ccc(O)c(O)c2o1	-6.6	.	.	.	1.0
CS(=O)(=O)c1nc(S(=O)(=O)c2ccc(Cl)cc2)c(N2CCC(O)CC2)s1	-5.8	.	.	.	-5.0
O=C(Cc1ccc(-c2ccccc2)cc1)OCC(=O)N1CCCC1=O	0.8	.	-6.3%	0.4	-1.3
C=CCn1c(COc2ccc(Cl)cc2)nnc1SCC(=O)Nc1ccc(S(N)(=O)=O)cc1	-1.6	-8.7	3.6%	3.3	1.9
O=C(/C=C/c1ccco1)NCC1CCCO1 (stereo unspecified)	-3.5	0.6	.	13.1	-12.5
COc1ccc2[nH]c3c(c2c1)CCN1C(=O)N([C@@H](C)C(=O)NC2CCN(Cc4ccccc4)CC2)C(=O)[C@]31C	2.2	.	.	.	1.0
O=c1[nH]c2cc3c(cc2cc1C(c1nnnn1Cc1ccccc1)N1CCN2CCCC2C1)OCCO3 (stereo unspecified)	-2.5	-30.7	-1.4%	7.2	-6.1
O=C(NC1CCCc2ccccc21)C1CCN(S(=O)(=O)c2ccccc2)CC1 (stereo unspecified)	-0.1	-7.5	4.5%	0.0	?
Nc1nc(-c2cccc(Br)c2)cs1	-2.9	-23.3	23.8µM*	-16.6	-7.1
CCCCNC(=O)c1onc(CSc2ccc(F)cc2)c1C(=O)NCCCC	1.2	.	3.8%	.	-9.1

3 entries drawn at random from the list so far, as already listed:
SMILES	RecA intein inh	YopH PTP inh	Mtb growth	Arbovirus anti	Mtb bLac sens	others
Cc1nc(N2N=C(c3ccc(Cl)cc3)CC2c2ccco2)sc1C(=O)N(C)C (stereo unspecified)	-25.2	.	3.2%	8.9	1.9
O=c1cc(CN2CCN(Cc3ccccc3)CC2)c2ccc(O)c(O)c2o1	-6.6	.	.	.	1.0
CC(C)(C)N(Cc1ccccc1)C(=O)c1cc2ccccc2o1	2.1	.	.	.	4.5

Next section
SMILES	RecA intein inh	YopH PTP inh	Mtb growth	Arbovirus anti	Mtb bLac sens	others
Cc1nccc(-c2sc(-c3cccs3)nc2C)n1	-64.0	.	2.1%	.	-8.9
c1cnc2ccc(C(c3nnnn3C3CCCCC3)N3CCN4CCCC4C3)cc2c1 (stereo unspecified)	-0.8	-8.9	-3.8%	16.2	5.5
CCN(CC)S(=O)(=O)c1ccc(C(=O)Nc2ccc3c(c2)OCO3)cc1	-5.4	.	8.8%	-1.6	-9.7
COc1ccc(NC(=O)CCN2CCOCC2)c(OC)c1	-0.8	.	-3.5%	-2.0	0.5
COc1ccc(-c2noc(CNC(=O)c3ccc4c(c3)OCO4)n2)cc1	-0.2	.	.	.	6.8
Cc1ccc(C)c(OCCC(=O)OCC(=O)c2ccc3c(c2)NC(=O)CO3)c1	-2.3	.	.	.	-3.0
C#CCNC(=O)C1=C[C@@H](C2CCCCC2)C[C@@H](OCCCCO)O1	2.9	.	-8.6%	-1.4	-7.9
O=Cc1ccc(OCC(=O)NCC2CCCO2)cc1 (stereo unspecified)	5.5	.	.	.	-2.7
CC(C)n1cc(/C=C2/NC(=O)NC2=O)c2ccccc21	-1.3	.	-6.7%	-0.1	-0.4
Cc1ccc(C(=O)NC2CCS(=O)(=O)C2)cc1S(=O)(=O)N1CCCCCC1 (stereo unspecified)	-1.2	.	-0.2%	-5.5	-7.0
CN(C)c1ccc(/C=[N+](\[O-])C2N(c3ccccc3)C(=S)SC2(C)C)cc1 (stereo unspecified)	0.2	-24.3	10.0%	-0.1	0.8
CCC[C@@H]1C[C@@H](C(=O)N[C@H]([C@@H](C)O)[C@H]2O[C@H](SC)[C@H](O)[C@@H](O)C2O)N(C)C1 (stereo partly specified)	-1.1	-40.2	.	1.7	43.1
CCCN1Cc2cccc(C(=O)NCc3ccccc3OC)c2C1=O	-0.4	-39.4	-0.4%	7.1	-2.4
CN1CC(=O)N(CC(=O)Nc2ccc(SC(F)F)cc2)C1=O	-2.4	.	5.1%	3.5	-8.1
Cc1ccc2c(C(=O)CN3CCN(c4ccccc4)CC3)c(C)[nH]c2c1	0.1	-16.2	-7.0%	-1.1	-8.5
COc1ccc(C(=O)Nc2cc3c(cc2C(=O)O)OCCCO3)c(OC)c1	0.5	.	.	.	29.8
C=CCNC(=S)N/N=C/c1ccc(-c2cc(Cl)ccc2Cl)o1	-20.1	-12.9	-1.8%	-8.5	1.0
NC(=O)c1nn(Cc2ccccc2)c(=O)c2ccccc12	0.0	.	.	.	1.0
COC(=O)c1cc(N=Nc2sc(N)nc2C)cc(C(=O)OC)c1	-1.1	.	-0.2%	.	0.9
CCOC(=O)c1ccc(Cl)c(S(=O)(=O)N2CCCC2)c1	-0.5	.	5.8%	1.3	2.2
CNCC(O)c1ccc(O)c(O)c1 (stereo unspecified)	-1.8	.	.	.	11.9
O=C(CSc1nc2ccsc2c(=O)n1CC1CCC(C(=O)O)CC1)c1ccc(F)cc1 (stereo unspecified)	.	.	9.5%	-4.1	2.4
CC1CCN(S(=O)(=O)c2cccc(C(=O)NCC3CCCO3)c2)CC1 (stereo unspecified)	1.7	.	.	.	-6.8
CC(Oc1ccccc1)C(=O)NC1CCN(Cc2ccccc2)CC1 (stereo unspecified)	0.8	9.9	-10.9%	2.6	-4.2
CS(=O)(=O)CCC(C(=O)n1nnc2ccccc21)N1C(=O)c2ccccc2C1=O (stereo unspecified)	-1.4	-19.6	20.1%	1.6	-6.8

Next section
SMILES	RecA intein inh	YopH PTP inh	Mtb growth	Arbovirus anti	Mtb bLac sens	others
Cc1cccc(CS(=O)(=O)Cc2ccc(C(=O)O)o2)c1	-1.9	-10.7	-0.9%	-0.8	-1.1
Cc1ccc(S(=O)(=O)N(C)c2ccccc2C(=O)Nc2ccc3c(c2)OCCO3)cc1	3.8	.	5.6%	.	2.8
Cc1ccc(C(=O)N/C(=C\c2cn(C)c3ccccc23)C(=O)NCCCN2CCOCC2)cc1	-3.7	.	.	.	-9.7
O=C(NC(=S)Nc1cccc(Cl)c1N1CCCC1)c1ccc(-c2cccc([N+](=O)[O-])c2)o1	-2.3	0.6	54.4%	-12.0	?
Cn1cc(S(=O)(=O)Nc2ccc(F)c(Cl)c2)c(=O)n(C)c1=O	-8.5	.	.	.	-6.6
CCOC(=O)C1(Cc2ccccc2C)CCCN(Cc2ccc(NC(C)=O)cc2)C1 (stereo unspecified)	1.8	.	5.3%	-5.6	-3.0
CC(C)CC(=O)Nc1ccc(N2CCN(S(C)(=O)=O)CC2)cc1	0.1	-23.9	-3.1%	-1.6	-2.4
O=C(O)/C=C/C(=O)N1CCN(c2ccc(F)cc2)CC1	3.5	.	-2.1%	6.2	4.1
COc1ccc(C(=O)NCCCc2nc3ccccc3n2Cc2cc(C)ccc2C)cc1OC	3.0	-25.2	6.0%	2.2	-4.4
COc1ccc(C(c2c(C)[nH][nH]c2=O)c2c(C)[nH][nH]c2=O)cc1Br	98.1*	.	.	.	-2.6
O=c1nc(SCc2ccccc2Cl)nc(-c2ccc(Cl)cc2)[nH]1	-3.5	.	0.8%	.	37.8
COc1cc(NC(=S)N2CCN(C(c3ccccc3)c3ccccc3)CC2)cc(OC)c1	0.9	-16.6	-6.8%	-5.4	-5.0
CCC(=O)Nc1ccc(Nc2nc(Cl)nc(Nc3ccc(NC(=O)CC)cc3)n2)cc1	5.5	.	-0.8%	17.5	2.4
COc1ccc2c(=O)c(C(=O)NCc3ccccc3)c[nH]c2c1	-7.0	.	.	.	-2.9
CCC(C(=O)c1ccccc1)N(C(=O)c1ccccc1Cl)N1C(=O)C2C3C=CC(C3)C2C1=O (stereo unspecified)	1.2	-4.1	.	5.4	-7.2
Cc1oc2c(c(C)cc3oc(=O)c(CC(=O)NCC(=O)NCC(=O)O)c(C)c32)c1C	-11.0	.	.	.	-2.4
COc1ccc(C2(C)NC(=O)N(CC(=O)NCc3ccccc3)C2=O)cc1OC (stereo unspecified)	2.5	.	.	.	-0.4
CCC(CC)c1nnc(NC(=O)Oc2ccccc2)s1	0.1	-11.1	-7.1%	16.1	-14.8
CCc1ccc(NC2=NCC(=O)N2c2ccc3c(c2)OCCO3)cc1	-1.6	-2.0	2.2%	-1.4	-6.1
COc1ccc(NC(=O)c2cn(-c3ccccc3)nc2SC)cc1	-0.5	.	7.2%	.	47.5
O=C(CN1CCN(S(=O)(=O)c2ccc(F)cc2)CC1)Nc1ccc2c(c1)OCCO2	-0.1	-11.2	1.6%	-3.5	.
COc1ccc(NS(=O)(=O)c2ccc(O)c(C(=O)OCC(=O)NC(C)C3CC4CCC3C4)c2)cc1 (stereo unspecified)	3.9	.	-0.8%	7.2	-0.4
CCc1c(C(=O)N/N=C/c2ccc(C)o2)csc1C	0.8	-13.0	-0.4%	-3.2	8.6
COc1ccc(CCNCC2C(Oc3ccc(Cl)cc3)C(=O)N2c2ccccc2C)cc1OC (stereo unspecified)	5.6	.	7.4%	4.2	0.4
O=C(CCS(=O)(=O)c1ccc(Br)cc1)Nc1ccc2c(c1)OCO2	4.2	-39.1	-4.8%	-18.1	-0.8

Next records
SMILES	RecA intein inh	YopH PTP inh	Mtb growth	Arbovirus anti	Mtb bLac sens	others
Cc1ccc(C)c(NC(=O)c2ccccc2Sc2ccc([N+](=O)[O-])cc2Cl)c1	1.8	-10.7	2.7%	2.5	0.0
Cc1noc(C)c1S(=O)(=O)Nc1ccc(C(=O)N2CCN(c3ccc(Cl)cc3)CC2)cc1	5.7	-36.5	.	11.3	-6.5
CCOC(=O)CSc1nc2ccccc2c(=O)n1CC1COc2ccccc2O1 (stereo unspecified)	-1.6	-20.3	-0.3%	2.0	11.5
C=C1Cn2c(nnc2-c2ccc(Cl)cc2)S1	2.3	-34.3	-7.3%	-3.6	-4.9
COc1ccccc1N(C(=O)c1snc(C(N)=O)c1N)C(C(=O)NC1CCCC1)c1ccco1 (stereo unspecified)	-0.1	-37.4	-4.2%	-9.9	-6.0
CCn1c(SCC(=O)N2CCCCC2C)nc2c1c(=O)n(C)c(=O)n2C (stereo unspecified)	1.8	.	.	.	-8.4
Cc1nc(CNC(=O)CC2C(=O)NCCN2Cc2ccc(F)cc2)cs1 (stereo unspecified)	-3.6	.	.	.	-2.3
Cc1cccc(C)c1NC(=S)/N=C/N(C)C	-0.7	.	1.8%	3.6	-0.2
COC(=O)c1ccccc1S(=O)c1snnc1C (stereo unspecified)	-4.2	.	-0.4%	0.2	-4.8
CCN(CC)c1nc(Nc2ccccc2)nc(Oc2ccc(=O)n(C)n2)n1	-2.7	-36.0	0.4%	-1.4	?
Cc1cccc(OCC(=O)Nc2cccc3nsnc23)c1	-5.0	-24.6	-5.6%	3.7	-0.4
O=S(=O)(c1cc(F)ccc1F)N1CCN(c2ncccn2)CC1	-1.7	.	.	.	-3.4
N#Cc1c(C(F)(F)F)cc(-c2ccccc2)nc1SCc1nc(N)nc(N2CCOCC2)n1	-1.2	-21.0	68.0%	6.0	78.5
CCOC(=O)N1CCN(c2c(NCCCN(CC)CC)c(=O)c2=O)CC1	1.9	4.8	-16.7%	10.4	-12.2

Only part of the results is shown. The share of hits here may be higher or lower than overall.
